E coli growth: inhibitors of Escherichia coli growth. OD600, 23 h; hits give low values. OD600 absorbance (no concentration beside the values). hit rate 0.21% among 330,000. AID 1053175;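 active = OD600 absorbance below the run mean of sample wells minus 3.6 SD, in any replicate, cut at about 0.56 in these data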;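 note: stock transfer was 300 nL into about 60 µL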
UCH37 DUB inh: inhibitors of human deubiquitinating enzyme UCH37; Q9Y5K5; hit rate 0.33% among 330,000; inhibition, % (no concentration beside the values); purified proteasome/UCH37, Ub-AMC cleavage fluorescence;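 active = mean of two replicates above 20%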;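 note: 0% = compound-free wells with enzyme and 100% = wells lacking proteasome; stock transfer was 100 nL into about 20 µL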
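System: Proteasome-associated human UCH37 deubiquitinase; Input: 0.15 nM proteasome in added enzyme buffer; Also added: Ub-AMC substrate from 1 µM stock; Incubation: 30 min compound-proteasome preincubation then 25 min substrate reaction, room temperature; Detection: fluorescence, ex 355 nm, em 460 nm; Read-out: % inhibition of Ub-AMC cleavage fluorescence; Benchmarks: no-proteasome and no-compound wells.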
FGF22 binding: shifts melting point of recombinant human FGF22 | Q9HCT0 | calls only at 9.99 µM | hit rate 1.5% among 340,000 | recombinant FGF22 thermal shift, SYPRO orange fluorescence; percent of sucrose octasulfate shift, DMSO zero | AID 651658;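 active = melting point raised past a set limit in the mean and every replicate; three in four hits are not shown here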
HNF4A DNA FP: change in binding of human HNF4 alpha to DNA; HNF4a-FITC DNA binding, fluorescence polarization, 1 h; P41235; hit rate 0.3% among 360,000; activity change, % at 10 µM; in the data active = activity change above about 30%, passing the limit was not always enough;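 note: controls were the assay level and a saturating level of protein; the project sought stronger binding though the title names inhibitors; some compounds called inactive have numbers as strong as hits; positive values seem to mean higher polarization but the record does not say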
Target sequence (P41235 whole entry, looked up): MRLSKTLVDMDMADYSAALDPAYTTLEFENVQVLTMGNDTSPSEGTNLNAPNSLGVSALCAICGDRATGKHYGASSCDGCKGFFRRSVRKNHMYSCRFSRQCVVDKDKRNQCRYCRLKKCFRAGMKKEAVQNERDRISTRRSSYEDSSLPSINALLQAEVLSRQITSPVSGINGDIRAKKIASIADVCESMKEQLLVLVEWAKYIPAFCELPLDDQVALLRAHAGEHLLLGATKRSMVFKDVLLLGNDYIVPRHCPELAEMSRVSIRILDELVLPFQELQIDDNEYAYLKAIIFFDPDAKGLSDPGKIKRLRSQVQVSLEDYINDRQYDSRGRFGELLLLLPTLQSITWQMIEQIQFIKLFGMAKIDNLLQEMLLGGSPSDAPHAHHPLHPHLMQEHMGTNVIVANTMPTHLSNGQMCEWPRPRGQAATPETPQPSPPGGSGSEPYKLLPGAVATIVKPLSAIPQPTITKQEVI
B2AR ag: activates human beta-2 adrenergic receptor causing internalization | Am2.2-beta2AR cells, FAP receptor internalization, flow cytometry; reference of the scale not given here | hit rate 0.43% among 340,000 | P07550 | response, % (concentration not given with the values);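 active = response above a set limit, near 3 SD of response in nonfluorescent compounds, cut at about 42% in these data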;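 note: stock transfer was 100 nL into about 11 µL; a reference agonist was the positive control; negative values mostly stem from fluorescent compounds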
Target sequence (P07550 whole entry, looked up): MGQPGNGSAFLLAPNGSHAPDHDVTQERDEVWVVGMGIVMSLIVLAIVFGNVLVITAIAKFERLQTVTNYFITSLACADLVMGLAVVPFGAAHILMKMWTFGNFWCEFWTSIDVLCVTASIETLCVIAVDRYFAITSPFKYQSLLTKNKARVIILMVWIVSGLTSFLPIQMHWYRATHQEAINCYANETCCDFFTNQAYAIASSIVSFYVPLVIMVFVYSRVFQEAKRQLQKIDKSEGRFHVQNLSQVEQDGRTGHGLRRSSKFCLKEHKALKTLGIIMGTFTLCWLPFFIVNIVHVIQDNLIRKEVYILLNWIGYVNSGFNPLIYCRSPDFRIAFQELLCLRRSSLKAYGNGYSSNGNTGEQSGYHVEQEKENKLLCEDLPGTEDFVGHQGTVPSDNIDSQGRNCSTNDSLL
ALR inh: inhibitors of human sulfhydryl oxidase ALR; inhibition, % (concentration not given with the values); purified ALR, DTT oxidation, H2O2 HRP-luminol luminescence; hit rate 3.8% among 290,000; AID 485317;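 active = mean and each replicate at 75% or more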;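 note: stock transfer was 7.5 nL into about 7.5 µL; 0% = neutral wells and 100% = wells with inactivated enzyme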
Target sequence (P55789 whole entry, looked up): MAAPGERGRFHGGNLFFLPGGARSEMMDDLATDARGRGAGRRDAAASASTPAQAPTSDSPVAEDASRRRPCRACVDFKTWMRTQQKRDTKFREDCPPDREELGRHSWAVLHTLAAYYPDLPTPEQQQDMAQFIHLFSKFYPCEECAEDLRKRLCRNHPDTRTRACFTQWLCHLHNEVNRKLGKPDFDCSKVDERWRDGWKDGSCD
Ecoli rRNA inh: selective bacterial rRNA inhibition in E. coli | GFP signal change (wild-type ribosome), % (concentration not given with the values) | E. coli WT GFP vs humanized-ribosome RFP mutants, fluorescence, 24 h; hits give low values; DMSO median 0, no signal -100 | hit rate 1.6% among 350,000;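 active = significant combined selectivity score with lowered wild-type GFP, culture density cut under 30%, mutant RFP and density less affected; inactive = any of these conditions unmet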; note: one replicate is shown; some compounds called inactive have numbers as strong as hits
Ecoli rRNA inh OD600: also measured in Ecoli rRNA inh; calls as there; OD600 change, %; measured here: OD600 growth;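 optical density of the mix in the first replicate; 0 = DMSO median and -100 = no signal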
Ecoli rRNA inh RFP: second read-out of Ecoli rRNA inh, no call of its own (marks repeat the call); RFP signal change, %; measured here: RFP humanized mutant strains;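 first replicate; 0 = DMSO median and -100 = no signal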
* marks the source's active call; other numbers are inactive results; i = inactive; x = no result given; & = joins results of further samples. Only part of the results is shown; the hit share may differ from the screen's.

E coli growth	UCH37 DUB inh	FGF22 binding	HNF4A DNA FP	B2AR ag	ALR inh	Ecoli rRNA inh	Ecoli rRNA inh OD600	Ecoli rRNA inh RFP	compound
0.7	-1.8	i	-1.1	3	-1	-1	-26	-1.5	Cc1ccc(NS(=O)(=O)c2cccc(C(=O)N(C)Cc3cccs3)c2)cc1
0.62	4.7	x	-0.3	0	98*	x	x	x	COc1cccc(N2CCN(c3c4c(nc5ncnn35)CCC4)CC2)c1
0.7	-1.3	x	-3.2	0	2	x	x	x	Cc1cccc(C(=O)NC2CCN(CC(=O)N3CCOCC3)CC2)c1
0.66	2.7	x	1.9	-18	x	x	x	x	O=C(Nc1cccn2ncnc12)c1ccc(Cl)cc1
0.76	4.9	i	-0.1	7	-10	0	2	-4.6	Cc1noc(NS(=O)(=O)c2ccc(NC(=O)CCn3c(=O)oc4ccccc43)cc2)c1C
0.59	-0.7	x	2.6	1	4	-18	0	13	Cc1ccnc(NC(=O)c2cccc(NC(=O)COc3ccccc3)c2)c1
0.67	-240	i	-1.6	-14	0	10	13	5.5	CC(=O)c1ccc(-c2ccc(C(=O)NCC(c3ccco3)N(C)C)o2)cc1 (configuration not stated)
0.63	5.1	i	0.5	-4	2	8	-10	0.0	FC(F)Sc1ccc(NC2=NCCCCC2)cc1
0.76	4.9	x	3.3	-3	-6	x	x	x	COc1ccc(-c2noc(-c3ccccc3C(=O)NCc3ccco3)n2)cc1
0.62	1.6	i	2.0	16	-3	6	3	65	CC(=O)Nc1cccc(NC(=O)c2ccc3c(c2)CCN3S(=O)(=O)c2ccccc2)c1
0.79	2.8	x	3.4	-6	0	x	x	x	Cc1cc(C)nc(NS(=O)(=O)c2ccc(NC(=O)c3ccco3)cc2)n1
x	x	i	-0.9	-1	-11	-2	0	-4.5	COc1ccc(C(Sc2ccccc2)c2ccccc2)cc1OC (configuration not stated)
0.7	3.4	i	-1.2	-2	-2	4	1	-6.9	Cn1c(SCCC(=O)O)nnc1-c1ccncc1
0.69	4.6	x	1.1	-13	55	x	x	x	O=C(CSc1nnc(-c2cccnc2)n1Cc1ccco1)c1ccc(Cl)cc1
0.65	22*	x	24	5	x	4	0	-2.1	CC(C)S(=O)(=O)C1=NSC2=NC(=O)/C(=C\c3ccc(-c4cccc(C(=O)O)c4)o3)C(=N)N21

Marked active in UCH37 DUB inh, among the entries above:
E coli growth	UCH37 DUB inh	FGF22 binding	HNF4A DNA FP	B2AR ag	ALR inh	Ecoli rRNA inh	Ecoli rRNA inh OD600	Ecoli rRNA inh RFP	compound
0.65	22*	x	24	5	x	4	0	-2.1	CC(C)S(=O)(=O)C1=NSC2=NC(=O)/C(=C\c3ccc(-c4cccc(C(=O)O)c4)o3)C(=N)N21

The listing continues.
E coli growth	UCH37 DUB inh	FGF22 binding	HNF4A DNA FP	B2AR ag	ALR inh	Ecoli rRNA inh	Ecoli rRNA inh OD600	Ecoli rRNA inh RFP	compound
0.72	-3.1	x	-3.4	-3	-2	x	x	x	CCN(CC)C(=O)c1sc(NC(=O)Cc2ccc(OC)cc2)c(C#N)c1C
0.67	0.7	i	-2.4	-6	-1	3	-5	0.0	COc1ccccc1CNS(=O)(=O)c1cc2c3c(c1)CCC(=O)N3CCC2
0.68	2.4	x	0.2	2	-5	3	0	-11	O=C(CN1C(=O)COc2ccc(S(=O)(=O)N3CCCC3)cc21)N1CCCC1
0.68	2.6	i	-4.2	12	3	15	24	0.9	CC1=NOC(=O)/C1=C\c1ccc2c(c1)OCO2
0.72	2.5	i	-2.9	-4	-16	11	8	3.2	COc1ccc(S(N)(=O)=O)cc1C(=O)N1CCCC1
0.73	1.6	i	4.1	14	2	5	3	-1.8	CCc1ccc(S(=O)(=O)Nc2cccc(-c3ccc4nnc(C)n4n3)c2)s1
x	x	x	-13	8	1	x	x	x	CCCOc1ccc(/C=c2\sc3nc(-c4ccco4)nn3c2=O)cc1OCC
x	-2.3	i	2.6	-7	x	x	x	x	COC(=O)[C@H](NC(=O)c1cc(-c2ccccc2)nc2ccccc12)c1ccccc1
0.69	2.1	x	-2.6	-1	-4	x	x	x	O=S(=O)(NCC1CCCO1)c1ccc(S(=O)(=O)N(Cc2ccccc2F)C2CCCCC2)cc1 (configuration not stated)
0.72	0.3	i	2.3	-3	x	5	8	2.4	COc1ccc(C(CC(=O)Nc2ncccc2C)N2Cc3ccccc3C2=O)cc1 (configuration not stated)
0.68	3.4	i	-1.2	1	6	-3	-11	-2.4	O=C(CCc1c[nH]c2ccccc12)NN1C(=O)NC2(CCCCC2)C1=O
0.64	0.5	i	-3.8	-7	0	7	15	0.7	C=CCOc1ccccc1CN1CCN(CCc2ccccc2)C(CCO)C1 (configuration not stated)
0.69	-11	x	1.5	29	-13	x	x	x	COc1ccc(Cn2cccc(NC(=O)Nc3cccc(C#N)c3)c2=O)cc1
0.7	2.5	i	3.9	-1	41	6	1	-0.5	COc1cc(/C=C/C2=CC(C)(C)NC(=S)N2)cc(OC)c1OC
0.66	-1.5	i	-3.0	-7	0	2	-2	-9.3	Cc1cccc(OCC(=O)OCC(=O)Nc2ccc(Cl)cn2)c1

Structures above with a cyano group, in the order listed:
E coli growth	UCH37 DUB inh	FGF22 binding	HNF4A DNA FP	B2AR ag	ALR inh	Ecoli rRNA inh	Ecoli rRNA inh OD600	Ecoli rRNA inh RFP	compound
0.72	-3.1	x	-3.4	-3	-2	x	x	x	CCN(CC)C(=O)c1sc(NC(=O)Cc2ccc(OC)cc2)c(C#N)c1C
0.69	-11	x	1.5	29	-13	x	x	x	COc1ccc(Cn2cccc(NC(=O)Nc3cccc(C#N)c3)c2=O)cc1

(continued)
E coli growth	UCH37 DUB inh	FGF22 binding	HNF4A DNA FP	B2AR ag	ALR inh	Ecoli rRNA inh	Ecoli rRNA inh OD600	Ecoli rRNA inh RFP	compound
0.69	-24	i	2.4	2	-84	8	3	-0.2	CCOc1cc(N2CCOCC2)c(OCC)cc1NC(=O)c1oc2ccccc2c1C
0.6	4.9	x	0.9	-3	98*	x	x	x	CC(C)c1nnc(NC(=O)c2sc3ccccc3c2Cl)s1
0.73	4.0	x	1.3	0	-2	x	x	x	O=C(NCCN1CCOCC1)c1ccc2c(c1)N(Cc1ccccc1)C(=O)CS2
x	x	x	-1.4	-3	-3	x	x	x	CC/C(=N/Nc1ccccc1)c1cnnc(SC)n1
0.67	-1.4	i	1.4	1	-7	4	6	-2.1	Cc1oc(C(N)=O)cc1COc1ccc(C(N)=O)cc1
0.75	3.3	x	2.5	2	-3	x	x	x	CC1(C)Cc2c(c(-c3ccccc3Cl)[nH]c(=O)c2C#N)CO1
0.73	1.4	i	-1.7	6	x	1	-2	-1.3	Cc1cc(Nc2ccc([N+](=O)[O-])cc2)nc2ccccc12
0.69	0.7	i	-0.4	-1	-5	2	14	0.4	Cc1cc(Br)cc(C)c1OCC(=O)NNC(=O)c1cccs1
0.72	4.1	i	-0.7	-3	-10	x	x	x	O=C(CN1C(=O)C(=O)N(CCC2=CCCCC2)C1=O)Nc1ccc(F)cc1F
0.72	2.2	i	-3.0	0	-8	8	7	0.0	COc1ccc([N+](=O)[O-])cc1Nc1ncnc2ccccc12
0.71	0.1	i	-0.3	4	-12	-18	-19	-1.0	Cc1ccc(CNC(=O)C2CC(c3ccccc3C(F)(F)F)=NO2)cc1 (configuration not stated)
0.69	4.0	i	-2.6	-5	-4	1	1	-0.4	Cc1cc(C)cc(C(=O)Nc2cccnc2)c1
0.6	0.6	i	-2.4	-9	-2	-5	3	-0.5	Cn1nc2c3ccccc3n(Cc3ccc(F)cc3)c2nc1=S
0.71	3.7	x	0.2	4	3	x	x	x	Cc1ccc(C(=O)O)cc1S(=O)(=O)NCC1CCCO1 (configuration not stated)
0.69	2.4	i	4.1	-2	0	0	5	3.1	CCCCN(C)CCN1C(=O)C2C(C(=O)Nc3ccc(Cl)cc3)C3C=CC2(O3)C1C(=O)NC1CCCCC1 (configuration not stated)

The closing two entries of the part above come first, to join the parts.
E coli growth	UCH37 DUB inh	FGF22 binding	HNF4A DNA FP	B2AR ag	ALR inh	Ecoli rRNA inh	Ecoli rRNA inh OD600	Ecoli rRNA inh RFP	compound
0.71	3.7	x	0.2	4	3	x	x	x	Cc1ccc(C(=O)O)cc1S(=O)(=O)NCC1CCCO1 (configuration not stated)
0.69	2.4	i	4.1	-2	0	0	5	3.1	CCCCN(C)CCN1C(=O)C2C(C(=O)Nc3ccc(Cl)cc3)C3C=CC2(O3)C1C(=O)NC1CCCCC1 (configuration not stated)
0.73	1.7	i	-3.8	-3	-2	-11	-7	4.1	CC(=O)c1sc(NC(=O)CSC(C)C(=O)Nc2cc(C)on2)nc1-c1ccccc1 (configuration not stated)
0.68	6.7	x	6.9	-4	-8	x	x	x	CC(=O)N1CCc2cc(S(=O)(=O)NC(CC(C)C)C(=O)N3CCn4c3nc3ccccc34)ccc21 (configuration not stated)
x	x	i	1.1	x	x	4&-2	20&-2	9.5&-0.8	Cc1ccc(S(=O)(=O)N(C)C[C@@H]2OCc3cnnn3CCCC(=O)N([C@@H](C)CO)C[C@H]2C)cc1
0.71	-0.4	i	-2.5	6	-15	4	8	1.0	COc1ccc(OC(=O)c2ccc(Cl)cc2)c(C(C)=O)c1
x	0.7	i	-1.9	-6	10	-2	12	-0.3	CC(O)[C@H]1CN=C(N)N1CC1CCCCC1 (some centres not stated)
x	x	i	1.0	x	x	-10	-1	1.6	COc1cccc(-c2cnc3c(NC=O)cc(-c4ccc(S(C)(=O)=O)cc4)cn23)c1
0.69	0.8	i	1.1	0	-11	17	19	-0.6	O=C(Cc1ccccc1)NNC(=O)c1ccc(NC(=O)c2ccccc2)cc1
0.62	3.4	i	3.7	-1	-3	6	7	8.0	NS(=O)(=O)c1ccc(CCNC(=O)c2cccc(OC(F)F)c2)cc1
x	x	i	2.3	-8	-3	1	5	-2.6	C=CCn1cnc2c(c1=O)c1nc3ccccc3nc1n2/N=C/c1cccc(OC)c1OC
0.66	8.0	i	-0.3	-10	-6	-5	-1	1.9	O=C(c1ccc(Sc2ccccc2)c([N+](=O)[O-])c1)N1CCOCC1
x	x	x	1.6	5	21	x	x	x	Cc1ccc(C)c(/C=N/NC(=S)NC(C)C)c1
0.7	0.6	x	4.5	-3	-7	x	x	x	O=C(CSc1ncn[nH]1)N1N=C2/C(=C/c3ccco3)CCCC2C1c1ccco1 (configuration not stated)
x	x	i	1.0	x	x	0	-1	6.5	Cc1nc2ccc(C(=O)NCCc3c[nH]c4ccccc34)cn2c1N(C)C(=O)CCc1ccccc1
0.66	1.4	i	-1.9	-3	x	6	3	2.0	COc1ccccc1N1CCN(C2CCCN(Cc3ccc(Cl)cc3)C2)CC1 (configuration not stated)
0.7	3.0	x	-1.8	11	x	x	x	x	CCOC(=O)C1=C(N)OC2=C(C(=O)CC(C)(C)C2)C1C1CCCCC1 (configuration not stated)

(more compounds)
E coli growth	UCH37 DUB inh	FGF22 binding	HNF4A DNA FP	B2AR ag	ALR inh	Ecoli rRNA inh	Ecoli rRNA inh OD600	Ecoli rRNA inh RFP	compound
x	x	i	3.4	x	x	-5&-4	-16&-5	8.5&-3.6	CCC(=O)N(C)C[C@H]1Oc2cc(-c3ccccc3F)ccc2S(=O)(=O)N([C@H](C)CO)C[C@H]1C
0.71	5.2	i	0.4	-3	-10	4	3	-0.3	O=C(NCc1ccco1)C(c1ccncc1)N(C(=O)Cn1nnc2ccccc21)c1ccccc1F (configuration not stated)
0.7	3.8	i	-0.2	-1	x	20	18	4.8	COc1ccc(CC(=O)NCc2cccc(CNC(=O)Cc3ccc(OC)c(OC)c3)c2)cc1OC
x	x	x	-0.8	4	89*	x	x	x	C(=N\Nc1nc2ccccc2s1)/c1cccs1
x	x	i	-3.6	0	6	0	1	-1.6	Cc1ccc(C)c(/C=N/Nc2nc3ccccc3c(=O)n2O)c1
